TRPV1 potentiator: human TRPV1 potentiation; potentiation, % at 8.33 µM; Q8NER1; hit rate 0.02% among 320,000; TRPV1-expressing cells, Fluo-8 calcium influx, capsaicin EC20 potentiation; host cell line not named in the record; control for the full effect not named in the record; active means potentiation above 80%; inconclusive means 30% to 80%; inactive means below 30%; note: 0% is about no effect
Target sequence (Q8NER1 whole entry, looked up): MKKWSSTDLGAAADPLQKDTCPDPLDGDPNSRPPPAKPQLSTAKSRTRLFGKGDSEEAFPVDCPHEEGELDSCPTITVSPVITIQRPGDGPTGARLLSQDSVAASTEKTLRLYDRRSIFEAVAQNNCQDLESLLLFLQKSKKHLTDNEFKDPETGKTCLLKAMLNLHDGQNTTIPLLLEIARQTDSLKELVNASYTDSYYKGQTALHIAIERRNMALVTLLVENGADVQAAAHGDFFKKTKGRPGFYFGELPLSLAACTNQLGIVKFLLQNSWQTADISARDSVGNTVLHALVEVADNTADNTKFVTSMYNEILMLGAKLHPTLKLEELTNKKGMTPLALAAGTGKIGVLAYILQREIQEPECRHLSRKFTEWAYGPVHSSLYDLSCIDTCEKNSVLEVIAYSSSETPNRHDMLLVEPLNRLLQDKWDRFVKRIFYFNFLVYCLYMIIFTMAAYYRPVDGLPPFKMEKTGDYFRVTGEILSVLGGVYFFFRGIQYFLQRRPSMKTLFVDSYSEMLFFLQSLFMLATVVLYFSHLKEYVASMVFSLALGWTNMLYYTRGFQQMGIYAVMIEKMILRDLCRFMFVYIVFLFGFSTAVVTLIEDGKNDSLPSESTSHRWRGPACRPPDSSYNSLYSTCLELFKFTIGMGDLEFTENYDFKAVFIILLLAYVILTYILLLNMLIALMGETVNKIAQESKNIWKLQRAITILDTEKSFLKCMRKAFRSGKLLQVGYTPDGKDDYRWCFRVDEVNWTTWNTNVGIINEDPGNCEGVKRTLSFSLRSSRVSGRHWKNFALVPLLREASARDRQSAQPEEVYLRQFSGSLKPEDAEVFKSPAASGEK
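TRPV1-expressing cells were cultured overnight at 35.5C and loaded with Fluo-8 calcium dye for 40 to 90 min at room temperature. After a 10 s baseline, compound was added and calcium influx was read kinetically for 3 min (ex 480/em 520 nm).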
gsp agonist: gsp mutant agonism; gsp mutant cells, cAMP HTRF, 30 min; control for the full effect not named in the record; Potency, µM (series often up to 76.9 µM), without a hit: at the top dose activation (cAMP increase), hits mostly activators; hit rate 0.13% among 340,000; AID 624287; active = well fitted activation curve with a large enough effect; inconclusive = small, poorly fitted or top-dose-only effect, or another doubt; inactive = no such curve, though single readings can be large or run the other way; cell line not stated here;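 note: phosphodiesterase inhibitor Ro 20-1724 added with compounds to block cAMP breakdown; potency is the fitted concentration of half-maximal effect; nearly all actives have a fitted effect of over 60% in size; about a fifth of the inactives were tested at one dose only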
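Cells stably selected in G418 were plated at 2000/well, grown 16-24 hr, then given compounds in DMSO with the PDE inhibitor […] (300 uM solution added) for 30 min at 37C; cAMP was read by HTRF.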
Menin-MLL FL inh: inhibitors of human menin-MLL interaction, wild-type MLL peptide. Fluorescence polarization, fluorescein-MLL peptide displacement from menin. 290,000 tested, under 10 active. AID 1766. FP activity change, % at 61.4 µM; inconclusive = falling polarisation curve, or a change in total fluorescence; inactive = total fluorescence flat and polarisation flat or rising; no compound was filed as active; the % refers to the polarisation; negative = inhibition;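 note: % of control where 0% means no effect; inhibitors lower the polarisation; unlabelled MLL peptide was the positive control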
gsp antagonist: antagonizes gsp, the McCune-Albright syndrome mutation; gsp-mutant cells, cAMP HTRF, 30 min; control for the full effect not named in the record; Potency, µM (series often up to 76.9 µM), for the others: at the top dose activity change, negative = inhibition, actives largely listed as inhibitors; hit rate 0.4% among 340,000; AID 624288; active = falling curve of any shape with a large fitted effect; inconclusive = falling curve, mostly with a smaller effect; inactive = flat or rising curve; cell line not stated here;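 note: intracellular cAMP measured with PDE inhibitor Ro 20-1724 present during compound exposure; potency is the fitted concentration of half-maximal effect; % is set by controls: 0 for no effect and ±100 for the full control effect; nearly all actives have a fitted effect of over 65% in size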
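Cells in G418 medium, seeded 16-24 h, 37C; buffer exchange to DPBS + 1 mM CaCl2, 0.5 mM MgCl2, 0.05% BSA; cpds in DMSO + […] (300 uM stock), 30 min 37C; HTRF cAMP detection.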
ClpP mod: qHTS Assay for Activators of ClpP. Potency, µM (top dose mostly 57.5 µM), for inactives: top-dose activity change, negative = active. ATP-dependent Clp protease proteolytic subunit (Bacillus subtilis (strain 168)), P80244. purified B. subtilis ClpP, FRET peptide cleavage, 20 min. AID 651965, 2013. hit rate 1.9% among 340,000; active = well fitted falling curve with a large enough effect; inconclusive = small, poorly fitted or top-dose-only effect; inactive = no such curve, though single readings can be large or run the other way; note: potency is the fitted concentration of half-maximal effect; the source files actives as falling curves though it sought activators and does not explain the sign; nearly all actives have a fitted effect of over 65% in size; many hits overshoot -100%
Target sequence (P80244 whole entry, looked up): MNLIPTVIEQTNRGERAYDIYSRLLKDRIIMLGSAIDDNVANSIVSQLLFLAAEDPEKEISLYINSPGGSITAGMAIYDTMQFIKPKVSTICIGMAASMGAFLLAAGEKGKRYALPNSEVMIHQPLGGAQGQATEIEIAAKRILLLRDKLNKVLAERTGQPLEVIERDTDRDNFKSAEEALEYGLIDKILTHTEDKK
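FRET quenching reversal measured ClpP activation: 10 microg/mL B. subtilis ClpP at pH 8 with the FRET-FV decapeptide, read at 430 nm after 320 nm excitation. The 20-min minus 0-min signal was scaled between DMSO/no-enzyme wells and ADEP (5.8 microM final).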
CtBP-E1A blk: blocks the CtBP interaction with E1A; AlphaScreen GST-E1A/His-CtBP binding, 1536-well; active compounds read low; control for the full effect not named in the record; activity change, % (test concentration not listed); hit rate 0.49% among 340,000; AID 651724; in the data active means activity change below about -65%; inconclusive means about -30% to -65%; inactive means above about -30%; note: % is set by controls: 0 for no effect and ±100 for the full control effect
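Homogeneous bead-based format: GST-tagged E1A captured on glutathione donor beads, His-tagged CtBP on nickel acceptor beads; compounds precede bead addition by 2 h at 37 °C.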
Sfp inh: Sfp phosphopantetheinyl transferase inhibition; Potency, µM, without a hit: max response, negative = inhibition, actives largely listed as inhibitors; Biochemical Sfp PPTase activity, qHTS; hit rate 3.5% among 310,000; Q9F4F7; active = well fitted inhibition curve with a large enough effect; inconclusive = small, poorly fitted or top-dose-only effect, or another doubt; inactive = no such curve, though single readings can be large or run the other way;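 note: the enzyme is Sfp with the accession as filed and its product quenches rhodamine fluorescence; potency is the fitted concentration of half-maximal effect; 0% = enzyme reaction without inhibitor and -100% = no enzyme wells; top concentration of the series not given in the record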
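Sfp 15 nM + cpd, 15 min RT; start w/ rhodamine-CoA 5 uM, BHQ-2-YbbR 12.5 uM (final); 50 mM Hepes pH 7.6, 10 mM MgCl2, 0.01% NP-40, 0.01% BSA; read 525/598 nm at 0 and 30 min.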
* hit, by the source's call; & = joins results of further samples; [ ] = dose if it differs, or a comment.

How did CCOC(=O)N1CCN(c2cc(=O)n(C3CCCCC3)c(=O)[nH]2)CC1 do in these assays?
TRPV1 potentiator: -6; gsp agonist: 2%; Menin-MLL FL inh: 2.8; gsp antagonist: -11%; ClpP mod: 0.3%; CtBP-E1A blk: -1; Sfp inh: 3%

How did Cc1nn(-c2ccc(Br)cc2)c(=O)c2ccccc12 do in these assays?
TRPV1 potentiator: 8; gsp agonist: 18%; Menin-MLL FL inh: -2.6; gsp antagonist: -14%; CtBP-E1A blk: -6; Sfp inh: -6%

How did CC(=O)NCCn1c(C)cc2ccccc21 do in these assays?
TRPV1 potentiator: -8; gsp agonist: inconclusive; Menin-MLL FL inh: 5.5; gsp antagonist: 2%; ClpP mod: -7.9%; CtBP-E1A blk: -8; Sfp inh: 11%

What do the screens show for `O=c1c2cnn(-c3ccccc3)c2nnn1/N=C/c1cccnc1`?
TRPV1 potentiator: -1; gsp agonist: 4%; Menin-MLL FL inh: -0.5; gsp antagonist: 0%; ClpP mod: -0.1%; CtBP-E1A blk: 12; Sfp inh: 5%

How did Cc1cc(C)n(CCC(=O)N2c3ccccc3CC2C)n1 (stereo not drawn) do in these assays?
TRPV1 potentiator: -19; gsp agonist: -2%; Menin-MLL FL inh: -3.3; gsp antagonist: 6%; ClpP mod: 2.2%; Sfp inh: 4%

Results for CCOc1ccc(OCC)c(NC(=O)C2CCN(c3ncccn3)CC2)c1 ?
TRPV1 potentiator: 12; gsp agonist: 20%; Menin-MLL FL inh: 0.8; gsp antagonist: -12%; ClpP mod: -11%; CtBP-E1A blk: 1; Sfp inh: 16%

How did CN(C)c1nc(Nc2ccc(Cl)c(Cl)c2)nc(N(C)C)n1 do in these assays?
TRPV1 potentiator: -11; gsp agonist: inconclusive; Menin-MLL FL inh: -1.7; gsp antagonist: 4%; CtBP-E1A blk: 8; Sfp inh: 3%

Results for O=C(CN1C(=O)c2cccc3cccc1c23)Nc1ccc2c(c1)OCO2 ?
TRPV1 potentiator: inconclusive; gsp agonist: -1%; Menin-MLL FL inh: 5.7; gsp antagonist: 10%; ClpP mod: -11%; CtBP-E1A blk: 6; Sfp inh: 8%

How did NNC(=O)CN1CCCc2ccccc21 do in these assays?
TRPV1 potentiator: 20; gsp agonist: 4%[15.4 µM]; Menin-MLL FL inh: -7.2; gsp antagonist: 7%; Sfp inh: 10%

Results for C=COCCNC(=O)C(=O)NCC(C)C ?
gsp agonist: 0%; gsp antagonist: 2%; ClpP mod: -2.3%; CtBP-E1A blk: -1

What do the screens show for `CCN(Cc1ccccc1)C(=O)C1CCN(Cc2ccc(OC)c(OC)c2OC)CC1`?
TRPV1 potentiator: 0; gsp agonist: 5%; Menin-MLL FL inh: -5.9; gsp antagonist: 8%; ClpP mod: -0.4%; CtBP-E1A blk: -2; Sfp inh: -27%

How did OC(COc1ccc(Cl)cc1Cl)CN1CCc2ccccc2C1 (stereo not drawn) do in these assays?
TRPV1 potentiator: -13; gsp agonist: inconclusive; gsp antagonist: 20%; ClpP mod: -0.3%; CtBP-E1A blk: 4; Sfp inh: -7%

What do the screens show for `Clc1ccc(OCc2nnnn2-c2ccccc2)cc1`?
TRPV1 potentiator: -2; gsp agonist: 1%; Menin-MLL FL inh: 2.9; gsp antagonist: 4%; ClpP mod: -2.6%; CtBP-E1A blk: 8; Sfp inh: -8%

How did Brc1ccccc1C1=Nn2c(nnc2-c2ccccc2)SC1 do in these assays?
TRPV1 potentiator: 11; gsp agonist: -18%; Menin-MLL FL inh: 4.1; gsp antagonist: -4%; ClpP mod: -0.4%; CtBP-E1A blk: -5; Sfp inh: 79µM*

What do the screens show for `CCOC(=O)CC1=NN(c2ccccc2)C(=O)C1`?
TRPV1 potentiator: 1; gsp agonist: 9%[15.4 µM]; Menin-MLL FL inh: 0.3; gsp antagonist: 7%; CtBP-E1A blk: 26; Sfp inh: -10%

Results for CC1=C(C#N)C(c2ccc(O)cc2)C(C#N)=C(C)N1 ?
TRPV1 potentiator: -4; gsp agonist: -5%[15.4 µM]; Menin-MLL FL inh: 0.9; gsp antagonist: 13%; CtBP-E1A blk: 0; Sfp inh: 15%

Results for O=C(Cc1ccc(F)cc1)Nc1nc(-c2ccc(F)c(F)c2)cs1 ?
TRPV1 potentiator: 2; gsp agonist: -1%; Menin-MLL FL inh: 0.0; gsp antagonist: inconclusive; ClpP mod: 2.1%; CtBP-E1A blk: 10; Sfp inh: 1%

What do the screens show for `O=C(O)c1ccccc1OCCN1CCCC1=O`?
TRPV1 potentiator: 1; gsp agonist: 0%[15.4 µM]; Menin-MLL FL inh: -0.2; gsp antagonist: 6%; ClpP mod: -0.5%; CtBP-E1A blk: 1; Sfp inh: 4%

Results for Cc1ccc(CCN2CC(C(=O)NC3CCCC3)CC2=O)cc1 (stereo not drawn) ?
TRPV1 potentiator: -7; gsp agonist: 16%; Menin-MLL FL inh: -1.9; gsp antagonist: -4%; ClpP mod: -1.7%; CtBP-E1A blk: -5; Sfp inh: 18%

Results for CCC(=O)c1c(OCc2ccccc2)ccc2c(C)cc(=O)oc12 ?
TRPV1 potentiator: 17; Menin-MLL FL inh: -1.4; Sfp inh: -6%

How did CCN1C(=O)C(=CC=CN(C)c2ccccc2)SC1=S do in these assays?
gsp agonist: -8%; ClpP mod: 3.8%; CtBP-E1A blk: -8

What do the screens show for `Cc1cc(C)n(Cc2ccc(C(=O)Nc3ccc(Br)cc3C)o2)n1`?
TRPV1 potentiator: 14; gsp agonist: -18%[15.4 µM]; Menin-MLL FL inh: 5.6; gsp antagonist: 7%; ClpP mod: -2.0%; CtBP-E1A blk: -25; Sfp inh: 5%

What do the screens show for `Cc1nn(-c2ccccc2)c(Cl)c1C(=O)OC(C)C(=O)Nc1ccc2c(c1)OCO2` (stereo not drawn)?
TRPV1 potentiator: -12; gsp agonist: inconclusive; Menin-MLL FL inh: -1.6; gsp antagonist: -18%; ClpP mod: -2.7%; CtBP-E1A blk: -12; Sfp inh: 10%

How did CCOc1cc(C(=O)NC(C)C2CCCO2)cc(OCC)c1OCC (stereo not drawn) do in these assays?
TRPV1 potentiator: 0; gsp agonist: -3%[15.4 µM]; Menin-MLL FL inh: 3.2; gsp antagonist: -3%; ClpP mod: -3.5%; CtBP-E1A blk: -8; Sfp inh: 13%

Results for COc1cccc(CNC(=O)CN2C(=O)COc3ccc(S(=O)(=O)N4CCCCCC4)cc32)c1 ?
TRPV1 potentiator: -18; gsp agonist: -3%; gsp antagonist: -8%; ClpP mod: -2.2%&2.1%; Sfp inh: 7%

Results for Cc1nc(SCC(=O)NCc2ccco2)c2c3c(sc2n1)CCCC3 ?
TRPV1 potentiator: 0; gsp agonist: inconclusive; Menin-MLL FL inh: -3.1; gsp antagonist: -3%; ClpP mod: -4.5%; CtBP-E1A blk: -12; Sfp inh: inconclusive

Results for O=c1nc(-c2ccccc2)cc(-c2ccccc2)[nH]1 ?
TRPV1 potentiator: 17; gsp agonist: 0%; Menin-MLL FL inh: 2.0; gsp antagonist: 18%; ClpP mod: 28µM*; CtBP-E1A blk: 4; Sfp inh: 17%

How did Cc1nn(Cc2ccc(C(=O)n3cccn3)o2)c(C)c1Br do in these assays?
TRPV1 potentiator: -3; gsp agonist: 18%; Menin-MLL FL inh: 0.5; gsp antagonist: -11%; ClpP mod: -1.0%; CtBP-E1A blk: 3; Sfp inh: 17%

Results for CC(OC(=O)c1ccc(S(=O)(=O)NCc2ccco2)cc1)C(=O)Nc1ncc(Cl)cc1Cl (stereo not drawn) ?
TRPV1 potentiator: 2; gsp agonist: 44%; Menin-MLL FL inh: 1.4; gsp antagonist: 9%; ClpP mod: 4.5%; CtBP-E1A blk: -5; Sfp inh: -77%

Results for COC(=O)CCCC(=O)NC1CC(C)(C)Cc2c1cnn2-c1ccc(C)cc1 (stereo not drawn) ?
TRPV1 potentiator: -6; gsp agonist: -3%; Menin-MLL FL inh: 17; gsp antagonist: -20%; CtBP-E1A blk: 5; Sfp inh: 8%

Results for CC(C)=C(NC(=O)c1ccccc1)C(N)=O ?
TRPV1 potentiator: -7; gsp agonist: -13%; Menin-MLL FL inh: 1.5; gsp antagonist: 10%; ClpP mod: 1.1%; Sfp inh: 3%

Results for O=C(Nc1nnc(-c2cccnc2)o1)c1cccc([N+](=O)[O-])c1 ?
TRPV1 potentiator: 2; Menin-MLL FL inh: 1.7; Sfp inh: 7%

Results for CCOC(=O)Cn1nnnc1CN(Cc1cccs1)Cc1cc2cc(C)cc(C)c2[nH]c1=O ?
TRPV1 potentiator: 2; gsp agonist: 13%; Menin-MLL FL inh: 2.2; gsp antagonist: -14%; ClpP mod: inconclusive; CtBP-E1A blk: -7; Sfp inh: 16µM*

Results for Cc1ccc(NC(=O)CSc2cccc3cccnc23)c(C)c1 ?
TRPV1 potentiator: 13; gsp agonist: 0%; Menin-MLL FL inh: 2.0; gsp antagonist: 2%; ClpP mod: 4.4%; Sfp inh: -13%

How did N#CCSc1nc2ccccc2c(=O)n1CCCC(=O)NCC1CCCO1 (stereo not drawn) do in these assays?
TRPV1 potentiator: -2; gsp agonist: inconclusive; Menin-MLL FL inh: -0.7; gsp antagonist: 3%; CtBP-E1A blk: 6; Sfp inh: 12%

How did COc1ccccc1C(=O)N/C(=C/c1ccc2c(c1)OCO2)C(=O)Nc1cccc(C(=O)O)c1 do in these assays?
TRPV1 potentiator: 4; gsp agonist: 20%[15.4 µM]; Menin-MLL FL inh: 0.6; gsp antagonist: 3%; CtBP-E1A blk: -16; Sfp inh: -10%

Results for O=c1cc(O)sc2ccccc12 ?
TRPV1 potentiator: 4; gsp agonist: 28%; Menin-MLL FL inh: 12; gsp antagonist: 4%; ClpP mod: -3.3%; CtBP-E1A blk: 0; Sfp inh: 9%

How did COc1ccccc1C1=NOC(C)(c2nnc(Cc3ccccc3)o2)C1 (stereo not drawn) do in these assays?
TRPV1 potentiator: 10; gsp agonist: -35%[inhibitor]; gsp antagonist: -15%; ClpP mod: -7.4%; CtBP-E1A blk: 4
